Screening data (PubChem)
HNF4A DNA FP: change in binding of human HNF4 alpha to DNA | P41235 | HNF4a-FITC DNA binding, fluorescence polarization, 1 h | activity change, % at 10 µM | 360,000 tested, 0.3% active; in the data active means activity change above about 30%, passing the limit was not always enough;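 further: controls were the assay level and a saturating level of protein; the project sought stronger binding though the title names inhibitors; some compounds called inactive have numbers as strong as hits; positive values seem to mean higher polarization but the record does not say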
Target sequence (P41235 whole entry, looked up): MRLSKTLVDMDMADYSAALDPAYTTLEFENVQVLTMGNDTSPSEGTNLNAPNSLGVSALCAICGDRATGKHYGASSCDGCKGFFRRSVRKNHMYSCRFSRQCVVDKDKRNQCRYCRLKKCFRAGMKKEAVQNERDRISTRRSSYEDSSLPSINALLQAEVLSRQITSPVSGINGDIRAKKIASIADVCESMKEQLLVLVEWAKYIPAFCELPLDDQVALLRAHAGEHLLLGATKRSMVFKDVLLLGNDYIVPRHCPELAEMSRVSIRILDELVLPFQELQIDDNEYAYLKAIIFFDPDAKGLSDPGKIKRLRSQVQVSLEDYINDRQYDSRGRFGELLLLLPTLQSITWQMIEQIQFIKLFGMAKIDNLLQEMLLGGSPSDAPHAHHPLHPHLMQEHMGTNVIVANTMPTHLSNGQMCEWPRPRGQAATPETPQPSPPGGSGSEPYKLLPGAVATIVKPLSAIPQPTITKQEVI
Beta2AR agonist: human beta-2 adrenergic receptor agonism by FAP; 340,000 tested, 0.43% active; Am2.2-beta2AR cells, FAP receptor internalization, flow cytometry; reference of the scale not given here; AID 504454; P07550; response, % (no concentration beside the values);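 active means response above a set limit, near 3 SD of response in nonfluorescent compounds, cut at about 42% in these data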;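 further: stock transfer was 100 nL into about 11 µL; a reference agonist was the positive control; negative values mostly stem from fluorescent compounds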
ALR inh: blocks human ALR sulfhydryl oxidase activity | 290,000 tested, 3.8% active | P55789 | AID 485317 | inhibition, % (concentration not given with the values) | purified ALR, DTT oxidation, H2O2 HRP-luminol luminescence;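 active means mean and each replicate at 75% or more; inconclusive means only one of the two met; inactive means neither met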;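 further: stock transfer was 7.5 nL into about 7.5 µL; 0% = neutral wells and 100% = wells with inactivated enzyme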
Target sequence (P55789 whole entry, looked up): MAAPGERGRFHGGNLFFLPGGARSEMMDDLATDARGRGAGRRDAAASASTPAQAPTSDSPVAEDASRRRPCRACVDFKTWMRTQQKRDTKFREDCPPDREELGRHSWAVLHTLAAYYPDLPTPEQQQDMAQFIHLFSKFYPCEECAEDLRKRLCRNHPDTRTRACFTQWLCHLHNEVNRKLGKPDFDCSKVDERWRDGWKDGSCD
Calb FLC: C. albicans growth modulation with fluconazole. C. albicans CaCi-2 (fluconazole-resistant clinical isolate) + fluconazole, Alamar Blue growth, 48 h. AID 1979. 300,000 tested, 0.57% active. growth inhibition, % (no concentration beside the values);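 active means most replicates above 75%; inconclusive means exactly half above 75%; inactive means most below 75%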;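 further: all wells also contain fluconazole at 8 µg/ml as a sub-toxic cotreatment; 0% = median of DMSO wells and 100% = median of geldanamycin control wells; wells of about 8 µL received 7.5 nL stock; the first replicate is given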
RanGTP-Impb inh: inhibitors of RanGTP-importin-beta interaction, primary screen, biochemical, FRET, CFP-Ran, YFP-importin-beta, homogeneous. cell-free CFP-Ran/YFP-importin-beta FRET ratio. inhibition, % (no concentration beside the values). 300,000 tested, 1.1% active. AID 2216;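 active means most replicates above 15%; inconclusive means exactly half above 15%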;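 further: 0% = DMSO wells and 100% = Ran loaded with GDP instead of GTP; wells of about 40 µL received 100 nL stock; the first replicate is given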
LANA-H2A inh: blocks KSHV LANA binding to histone H2A/H2B; cell-free LANA-H2A/H2B peptide, fluorescence polarization; inhibition, % (no concentration beside the values); 320,000 tested, 0.6% active; AID 2629; in the data active means inhibition mostly above about 10%, no sharp cut-off; inactive means mostly below about 6.7%;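 further: stock transfer was 7.5 nL into about 10 µL; 0% = median of vehicle wells and 100% = median of positive control wells; one replicate is shown; the record names a cut of 25% in any replicate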
Vif TR-FRET: HIV-1 Vif–A3G interaction blockers – biochemical, TR-FRET, GST-Vif 1-94, biotin-A3G peptide, dose response retest, primary screen (AID 1117319) | 260,000 tested, 0.57% active | TR-FRET GST-Vif / biotin-A3G peptide binding; higher % means a stronger effect; test concentration not given here; strong numbers were not always called active | one-dose inhibition, %; IC50 in µM for titrated hits;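 active means above the screen mean plus three standard deviations and confirmed in dose response; inconclusive means results disagree or hit not tested in dose response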;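 further: Vif residues 1-94 fused to GST binding biotinylated APOBEC3G peptide 110-148; 0% = full assay without inhibitor and 100% = GST in place of GST-Vif; retest series ran down from 100 µM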
* hit, by the source's call; ? = inconclusive; . = not tested or not shown; & = joins results of further samples.

SMILES | HNF4A DNA FP | Beta2AR agonist | ALR inh | Calb FLC | RanGTP-Impb inh | LANA-H2A inh | Vif TR-FRET
Cn1c(=O)n(C)c2cc(N3CCOCC3)c(NC(=O)c3ccc(F)cc3)cc21 | -4.2 | -5 | -6 | 7 | -3.9 | 1.8 | -1%
CCOC(=O)c1sc(NC(=O)CSc2nc(C)cc(C(F)(F)F)n2)c(C#N)c1C | -1.2 | -18 | -5 | -9 | -5.3 | 0.3 | 0%
CN(Cc1ccccc1)CC1C2CCC(C2)C1O (centres undefined) | -3.0 | 5 | . | . | . | . | 4%
Cc1nc(-c2cccnc2)sc1C(=O)Nc1ccc(Cl)cc1 | 4.4 | -6 | -5 | 16 | -1.2 | 1.7 | 4%
CCOC(=O)C1CCCN(CC(=O)/C=C2/N(C)c3ccccc3C2(C)C)C1 (centres undefined) | 1.7 | 12 | -12 | 0 | 0.8 | -0.1 | -4%
CCC(C)(C)NC(=O)C(c1cccc(OC)c1OC)N(C(=O)CCC(=O)Nc1cc(C)on1)C(C)C (centres undefined) | 0.8 | -5 | 4 | 1 | 3.2 | -1.0 | .
CC(C)c1ccc(C(N)=S)cc1 | -0.3 | -1 | 50 | 25 | 5.2 | 2.0 | 10%
O=c1c2ccccc2nc(/C=C/c2cccc(Br)c2)n1CCCO | 3.1 | -11 | -4 | -6 | ? | 2.7 | -5%
O=C1C=C(c2ccc3ccccc3c2)C[C@@H](c2ccc(F)cc2)C1 | 5.0 | -6 | -33 | . | . | 21* | .
CCCN1CCN(C(=S)Nc2ccc3nc(N4CCN(CC)CC4)cc(C)c3c2)CC1 | -0.8 | 12 | -3 | 4 | -1.6 | -7.5 | -3%
O=C(NC1CCS(=O)(=O)C1)c1ccc2c(c1)OCO2 (centres undefined) | 1.6 | -2 | 1 | 4 | 0.9 | 1.2 | 0%
O=C(/C=C/c1ccccc1)Nn1c(-c2cccs2)nc2ccccc2c1=O | -0.1 | -3 | -8 | 95* | 0.4 | -2.7 | .
CCN(C(=O)c1cc2ccccc2o1)C12CC3CC(CC(C3)C1)C2 | . | . | -9 | -25 | -5.0 | 6.0 | -6%
Nc1cc(=O)[nH]c(SCC(=O)Nc2ccc3c(c2)CCC3)n1 | -1.7 | 7 | 90* | -12 | -0.2 | -0.8 | 5%
O=C(c1ccccc1)c1cnc(-c2ccc(Cl)cc2)s1 | -0.3 | 9 | 0 | -3 | 4.3 | -1.6 | 18%
O=S(=O)(c1cc(F)ccc1F)N1CCC2(CC1)OCCO2 | -1.1 | 9 | -2 | -1 | -5.6 | -5.4 | -2%
COc1ccc2nc(NC(=O)CCc3cc(OC)c(OC)c(OC)c3)sc2c1 | 1.5 | 11 | . | 12 | 1.1 | -0.5 | 0%
COc1ccc(-c2n[nH]c(=S)n2Cc2ccco2)cc1 | 2.5 | -2 | 97* | 6 | ? | 2.7 | 8%
O=[N+]([O-])c1ccc2c(c1Nc1ccccc1)=NC1(CCCCC1)N=2 | -1.8 | 6 | 1 | 5 | 0.1 | -2.2 | ?
O=C(Cn1c(=O)c(=O)n(Cc2ccccc2)c2ccc(Cl)cc21)Nc1cc(F)ccc1F | . | . | 6 | ? | 1.2 | -2.9 | -1%
COc1ccccc1C1c2ccc3ccccc3c2Oc2ncn(CCN(C)C)c(=N)c21 (centres undefined) | 3.5 | 14 | -16 | 23 | 0.4 | -0.9 | -8%
O=C(c1ccc(S(=O)(=O)N2CCCC2)cc1)N1CCCCC1 | 1.0 | -5 | . | -1 | -1.1 | . | -6%
CN(C)CCN1C(=O)C(=O)/C(=C(/O)c2ccc(S(=O)(=O)N3CCOCC3)cc2)C1c1ccc(Br)cc1 (centres undefined) | -0.1 | -4 | -16 | 4 | 1.4 | 1.5 | .
CCOC(=O)C(C)(C)N(Cc1cccc(C)c1)S(=O)(=O)c1ccc(Cl)c([N+](=O)[O-])c1 | -2.0 | 14 | -8 | -1 | -2.3 | 7.7 | .
O=C(/C=C\Nc1ccc(S(=O)(=O)Nc2ncccn2)cc1)c1ccccc1 | -2.3 | 5 | . | -17 | 0.2 | . | 7%
Cc1ccc(Nc2nc(N3CCOCC3)nc(N3CCOCC3)n2)cc1Cl | 1.3 | 13 | . | 1 | 3.1 | 1.9 | .
O=C(O)c1ccc(N(Cc2ccccc2)S(=O)(=O)c2ccccc2)cc1 | 11 | 5 | 6&21 | -12&6 | -12&-0.4 | -1.8&-1.3 | -3%
CCCOc1ccc(C(=O)NCC(c2cccs2)N(C)C)cc1OC (centres undefined) | 2.4 | -5 | . | 10 | 2.1 | -3.1 | -1%
CCN1CCN(CCCNC(=O)C2CCCN(c3nnc(-n4cccc4)s3)C2)CC1 (centres undefined) | -2.7 | -1 | -5 | 2 | -5.0 | 4.3 | 1%
O=C(NCc1cccs1)C1(S(=O)(=O)c2ccccc2)CC=CC1 | 1.9 | 0 | -6 | -15 | -0.6 | -4.8 | .
O=C(CN1C(=O)c2ccccc2C1=O)Nc1nccs1 | 0.7 | -5 | 1 | 5 | 5.3 | 1.9 | -7%
C/C(=N/NC(=O)CNC(=O)c1cccnc1)c1ccc(Cl)c(Cl)c1 | 2.1 | 7 | 4 | 8 | -2.1 | 3.2 | -5%
COc1ccc(C(C)=O)cc1CN(C)C | 0.6 | 1 | 1 | 8 | -0.7 | 3.8 | 2%
Cc1cccc2c(=O)oc(-c3ccccc3Cl)nc12 | 0.6 | -2 | -10 | 5 | 3.8 | 0.8 | .
CCCCOC(=O)c1nc(Cl)c(Cl)c(N)c1Cl | -1.1 | -13 | 0 | -14 | 3.3 | -1.8 | -1%
CCOc1ccc(NC(=O)CSc2nnc(C34CC5CC(CC(C5)C3)C4)n2C)cc1 | -2.5 | -15 | -14 | 13 | -0.7 | 6.9 | 22%
CCC1S/C(=N/N=C/c2ccco2)N(Cc2ccccc2C)C1=O (centres undefined) | 1.9 | -12 | -1 | -9 | 0.2 | 1.5 | -15%
COc1ccc(NC(=O)Cn2ncn3nc(-c4ccc(OC)cc4)cc3c2=O)cc1 | 4.0 | 3 | -11 | -6 | 3.3 | 0.0 | .
O=C(Nc1cccc(S(=O)(=O)N2CCCCC2)c1)c1ccc2ncsc2c1 | 8.0 | 6 | 30 | 6 | 2.9 | 0.6 | -5%
Nc1c(C(=O)NCc2ccco2)nnn1Cc1ccccc1 | 2.3 | -3 | -3 | 18 | 6.0 | -3.7 | -3%
Cc1c(C(=O)c2ccc(Br)cc2)c(=O)n(C)c(=O)n1C | 4.9 | 11 | -13 | -2 | -3.2 | -1.3 | -7%
Cc1nnc(SCC(=O)NCc2ccc3c(c2)OCO3)n1C | -5.5 | -5 | -7 | -5 | ? | -3.5 | .
O=C1CC(SCc2nc3ccccc3[nH]2)C(=O)N1c1ccc(F)cc1 (centres undefined) | 0.1 | 4 | 32 | 8 | -1.7 | -0.5 | -3%
C#CCOCCOCCOCCNc1nc(N2CCN(C(=O)[C@H](CCC(=O)O)n3cc([C@@H](N)CC(N)=O)nn3)CC2)nc(N2CCN(C(=O)[C@H](CCC(=O)O)n3cc([C@@H](N)CC(N)=O)nn3)CC2)n1 | -1.7 | 0 | 1 | . | . | 156* | 0%
O=C(CNC(=O)c1ccc(Cl)cc1Cl)NCCCn1ccnc1 | -2.0 | -8 | -4 | -5 | -4.1 | -4.6 | 11%
Nc1nonc1-c1noc(N2CCOCC2)n1 | -1.6 | 0 | -7 | 18 | . | -2.0 | 17%
COc1ccc(OC)c(NC(=O)CC2SC(=NCc3ccccc3)NC2=O)c1 (centres undefined) | -6.2 | -2 | -10 | -4 | 1.6 | 0.4 | -10%
C=CCSc1nnc(NC(=O)CSc2nnc(C)s2)s1 | -0.3 | 0 | 3 | 7 | -5.7 | 3.4 | 91µM*
O=C(OC(C(=O)NCc1ccc2c(c1)OCO2)c1ccncc1)c1ccc(Cl)nc1 (centres undefined) | 0.9 | -5 | -5 | -5 | 0.1 | 0.9 | 7%
Cc1cccc2nc(-c3ccco3)c(Nc3ccccc3)n12 | 1.9 | 3 | . | 2 | -3.2 | -0.2 | ?

(continued)
SMILES | HNF4A DNA FP | Beta2AR agonist | ALR inh | Calb FLC | RanGTP-Impb inh | LANA-H2A inh | Vif TR-FRET
Cc1ccccc1C(=O)N1CCc2cc(-c3nc(NC(=O)Cc4ccc5c(c4)OCO5)sc3C)ccc21 | -2.0 | 0 | 0 | 1 | 5.7 | 0.8 | .
COc1ccc(/C=C2\CCC(C3CCCC3)C2=O)c(OC)c1 (centres undefined) | 1.1 | -8 | 0 | -7 | 7.3 | 3.4 | 4%
Cc1cc(C)n(C(C)CNS(=O)(=O)c2ccccc2)n1 (centres undefined) | 0.6 | 0 | -13 | -7 | -1.7 | 6.0 | .
CCCC1C(c2ccccc2)C(C#N)(C#N)C2(C#N)CC1(N)NC2=O (centres undefined) | 1.7 | 9 | 5 | -23 | -0.3 | 182* | -2%
O=C(NCc1ccco1)c1cc2nc(-c3cccs3)cc(C(F)(F)F)n2n1 | -0.3 | -9 | -7 | 23 | 20* | 1.8 | 6%
CCN1C(=O)/C(=c2\s/c(=C3\Sc4ccccc4N3C)c(=O)n2C)N(C)C1=S | . | . | 27 | -6 | 1.1 | -2.9 | -109%
Cc1nnnn1/C(=C\c1ccccc1)C(=O)OCC(=O)N1CC2(C)CC1CC(C)(C)C2 (centres undefined) | -0.1 | 1 | -4 | -25 | 2.7 | 0.8 | 0%
c1ccc2nc(N3CCCC3)c(N3CCCC3)nc2c1 | -1.1 | 3 | 99* | -15 | 3.7 | 2.7 | 24%
CC(C)(C)NC(=O)c1cccc(NC(=O)c2cccc(O)c2)c1 | -2.1 | -13 | 29 | 5 | -4.0 | -4.6 | 2%

For reference, some entries already given:
SMILES | HNF4A DNA FP | Beta2AR agonist | ALR inh | Calb FLC | RanGTP-Impb inh | LANA-H2A inh | Vif TR-FRET
C=CCSc1nnc(NC(=O)CSc2nnc(C)s2)s1 | -0.3 | 0 | 3 | 7 | -5.7 | 3.4 | 91µM*
O=C(OC(C(=O)NCc1ccc2c(c1)OCO2)c1ccncc1)c1ccc(Cl)nc1 (centres undefined) | 0.9 | -5 | -5 | -5 | 0.1 | 0.9 | 7%
Cc1cccc2nc(-c3ccco3)c(Nc3ccccc3)n12 | 1.9 | 3 | . | 2 | -3.2 | -0.2 | ?
Cc1ccccc1C(=O)N1CCc2cc(-c3nc(NC(=O)Cc4ccc5c(c4)OCO5)sc3C)ccc21 | -2.0 | 0 | 0 | 1 | 5.7 | 0.8 | .
COc1ccc(/C=C2\CCC(C3CCCC3)C2=O)c(OC)c1 (centres undefined) | 1.1 | -8 | 0 | -7 | 7.3 | 3.4 | 4%
Cc1cc(C)n(C(C)CNS(=O)(=O)c2ccccc2)n1 (centres undefined) | 0.6 | 0 | -13 | -7 | -1.7 | 6.0 | .
CCCC1C(c2ccccc2)C(C#N)(C#N)C2(C#N)CC1(N)NC2=O (centres undefined) | 1.7 | 9 | 5 | -23 | -0.3 | 182* | -2%
O=C(NCc1ccco1)c1cc2nc(-c3cccs3)cc(C(F)(F)F)n2n1 | -0.3 | -9 | -7 | 23 | 20* | 1.8 | 6%
CCN1C(=O)/C(=c2\s/c(=C3\Sc4ccccc4N3C)c(=O)n2C)N(C)C1=S | . | . | 27 | -6 | 1.1 | -2.9 | -109%

Rows were taken by chance, and some 6.3% of all compounds hit somewhere here.
